SARS PLpro yeast: blocks SARS-CoV papain-like protease in a yeast assay. AID 485353. Potency, µM (doses to about 32.9 µM), inactives show top-dose activity, positive = growth rescue. 330,000 tested, 0.19% active. S. cerevisiae expressing SARS-CoV PLpro, growth rescue; control for the full effect not named in the record; active means well fitted rising curve with a large enough effect; inconclusive means small, poorly fitted or top-dose-only effect; inactive means no such curve, though single readings can be large or run the other way; note: 0% is about no effect; nearly all actives have a fitted effect of over 55% in size; growth read by luminescence after 48 h
MARV entry inh: blocks Marburg virus binding to or entry into cells | Marburg virus pseudotyped entry inhibition, cell reporter; control for the full effect not named in the record; about a third of the inactives were read at about 46 µM | Potency, µM (highest dose often 37.8 µM), inactives show top-dose activity change, negative = inhibition, hits mostly inhibitors | AID 540276 | 300,000 tested, 1.8% active; active = well fitted inhibition curve with a large enough effect; inconclusive = small, poorly fitted or top-dose-only effect, or effect the other way; inactive = flat fitted curve, though single readings scatter; tested in HEK293 cells; about a fifth of its hits are not listed in these tables; note: % is set by controls: 0 for no effect and ±100 for the full control effect; luciferase read-out
2A StopGo: FMDV 2A StopGo reporter, luciferase signal; Potency, µM (top dose mostly 57.9 µM), without a hit: top-dose signal change, negative = less light; human cells with a luciferase reporter of 2A StopGo recoding; control for the full effect not named in the record; 410,000 tested, 1.2% active; active = well fitted falling curve with a large enough effect; inconclusive = small, poorly fitted or top-dose-only effect; inactive = no such curve, though single readings can be large or run the other way; tested in HEK293T cells; note: % is set by controls: 0 for no effect and ±100 for the full control effect; nearly all actives have a fitted effect of over 45% in size; luciferase light after 4 h
RE007 growth inh: less growth of the S. pombe RE007 Vpr strain; S. pombe RE007 Vpr strain, BacTiter-Glo ATP luminescence, 24 h; control for the full effect not named in the record; Potency, µM (top dose mostly 92.2 µM), for the others: top-dose activity change, negative = less growth; 360,000 tested, 0.21% active; AID 651644; active = well fitted falling curve with a large enough effect; inconclusive = small, poorly fitted or top-dose-only effect; inactive = no such curve, though single readings can be large or run the other way;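 note: % is set by controls: 0 for no effect and ±100 for the full control effect; nearly all actives have a fitted effect of over 50% in size; the assay follows cell death caused by Vpr and the record does not say whether a fall means rescue or toxicity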
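Fission yeast RE007 carrying one integrated HIV-1 vpr copy, seeded at OD 0.01 in PMG+AL medium with 23 nL pinned compound. Grown 24 h at 30 degrees; viability read by BacTiter-Glo luminescence after 5 min.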
Cruzain inh Det: inhibitors of Trypanosoma cruzi cruzain with detergent; 200,000 tested, 0.43% active; purified cruzain, Z-FR-AMC fluorescence, 0.01% Triton; P25779; Potency, µM, without a hit: max response, negative = inhibition, most hits filed as inhibitors;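 note: plate controls were neutral wells for no effect and buffer without enzyme for full effect; nearly all actives have a fitted effect of over 40% in size; top concentration of the series not given in the record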
Target sequence (P25779 123-467 limits assumed): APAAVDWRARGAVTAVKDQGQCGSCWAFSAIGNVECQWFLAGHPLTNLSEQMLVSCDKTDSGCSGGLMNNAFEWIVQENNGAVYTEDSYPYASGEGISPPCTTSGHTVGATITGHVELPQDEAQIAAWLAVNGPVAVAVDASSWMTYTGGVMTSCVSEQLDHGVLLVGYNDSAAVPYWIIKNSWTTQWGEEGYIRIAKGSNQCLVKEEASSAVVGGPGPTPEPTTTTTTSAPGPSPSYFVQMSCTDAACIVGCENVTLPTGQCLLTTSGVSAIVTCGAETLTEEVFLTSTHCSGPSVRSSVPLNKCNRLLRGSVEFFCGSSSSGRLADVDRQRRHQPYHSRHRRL
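Steps: dispense cruzain (1.5 nM final) in acetate buffer pH 5.5 with DTT and 0.01% Triton X-100; pin-transfer compounds; incubate 15 min RT; add Z-FR-AMC (2 uM final); read fluorescence every 30 s, using the 60 s intensity change.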
NS1 inh: influenza NS1 inhibition. S. cerevisiae slowed by influenza A NS1, growth recovery by OD600. AID 2326. 270,000 tested, 0.4% active. Potency, µM (top dose mostly 46.1 µM), inactives show at the highest dose activity, positive = more growth; active means well fitted rising curve with a large enough effect; inconclusive means small, poorly fitted or top-dose-only effect; inactive means no such curve, though single readings can be large or run the other way; note: nearly all actives have a fitted effect of over 50% in size
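In this qHTS, NS1 from influenza A is expressed in budding yeast, where it slows growth. Cells are switched from glucose to 2% galactose medium (pH 6.0, -URA), treated with compound, and growth recovery is read at OD600.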
Cruzain noTriton: inhibitors of Trypanosoma cruzi cruzain without detergent; purified cruzain, Z-FR-AMC fluorescence, no detergent; Potency, µM, for the others: max response, negative = inhibition, usual class: inhibitors; 200,000 tested, 2.3% active; AID 1476;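 note: plate controls were enzyme without inhibitor for no effect and buffer without enzyme for full effect; nearly all actives have a fitted effect of over 40% in size; top concentration of the series not given in the record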
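Purified cruzain at 1.5 nM, pre-incubated 15 min with compound at room temperature in 100 mM sodium acetate pH 5.5, 5 mM DTT, 0.00005% Triton X-100. Reaction started with 2 uM Z-FR-AMC; AMC fluorescence increase over 60 s gives rate.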
LASV entry inh: blocks Lassa virus binding to or entry into cells; Lassa virus pseudotype entry inhibition, cell reporter; control for the full effect not named in the record; 300,000 tested, 1.2% active; Potency, µM (doses to about 37.9 µM), without a hit: at the highest dose activity change, negative = inhibition, actives largely listed as inhibitors; active means well fitted inhibition curve with a large enough effect; inconclusive means small, poorly fitted or top-dose-only effect, or effect the other way; inactive means flat fitted curve, though single readings scatter; tested in HEK293 cells; note: % is set by controls: 0 for no effect and ±100 for the full control effect; nearly all actives have a fitted effect of over 50% in size; luciferase read-out
Starred values were filed as active, the others as inactive; ? = inconclusive; nt = no result given; & = joins results of further samples; [ ] = remark or other dose. Unless noted, calls come from the whole dose curve; as a rule, active = well fitted curve in the direction sought with a large enough effect; inconclusive = small, poorly fitted or top-dose-only effect, or another doubt; inactive = no such curve, though single readings can be large; an effect the other way counts as inactive or inconclusive. Potency is the fitted concentration of half-maximal effect.

SMILES	SARS PLpro yeast	MARV entry inh	2A StopGo	RE007 growth inh	Cruzain inh Det	NS1 inh	Cruzain noTriton	LASV entry inh
CCc1nnc(NC(=O)C2COc3ccccc3O2)s1 (centres undefined)	-6%	-8%	-25%	-18%	0.1%	-5%	2%	?
Cc1noc(C)c1COC(=O)COc1ccc(C#N)cc1	-9%	-11%[46.1 µM]	-14%	-13%	nt	nt	nt	1%[46.1 µM]
O=C(Nc1nnc2n1CCS2)c1cc(C(F)(F)F)cc(C(F)(F)F)c1	nt	nt	-26%	nt	-1.3%	nt	-4%	?
CCC1CCCCN1S(=O)(=O)c1ccc(S(=O)(=O)N(Cc2ccccn2)CC2CCCO2)cc1 (centres undefined)	-37%	?	?	2%	-4.0%	-10%	?	?
CC(C)(C(=O)c1ccccc1)/[N+]([O-])=C/c1ccccc1F	nt	?	13%	11%	nt	nt	nt	17%[14.3 µM]
CCOC(=O)C(C)Sc1nc(-c2ccccc2)ccc1C#N (centres undefined)	nt	37%[46.1 µM]	-16%	nt	-8.8%	nt	-7%	-1%[46.1 µM]
FC(F)(F)c1cccc(-c2nnc(-c3ccccc3)c(N3CCOCC3)n2)c1	-7%	-26%	0%	-14%	-3.8%	-57%	11%	-6%
CN(C)c1ccc(C(=O)Nc2ccc(CN3CCS(=O)(=O)CC3)cc2)cc1	1%	nt	27%	9%	nt	4%	nt	nt
Cc1c(NC(=O)c2ccc(OC(C)C)cc2)cccc1-c1nc2ncccc2o1	nt	nt	3%	nt	-1.7%	nt	-15%	-7%[46.1 µM]
Cc1ccccc1OCCCn1c(CO)nc2ccccc21	1%	2%	2%	8%	nt	nt	nt	-2%
Cc1cccc(NC(=S)NNC(=O)c2ccccc2OC(F)F)c1	-1%	16%	20%	16%	2.8%	-6%	10%	24%
CN1c2ccccc2N(C)C1(C)c1cccc2ccccc12	21%	?	-23%	-9%	-0.5%	5%	?	?
Cc1ccc2c(c1)C(=C(C#N)C#N)C(=O)N2CCN1CCOCC1	-4%	nt	?	-9%	nt	1%	nt	nt
Cn1c(=O)c([N+](=O)[O-])c(NCc2ccccc2Cl)c2ccccc21	0%	?	?	32%	nt	-11%	nt	-10%
CCOc1ccc(CCNC(=O)CCc2cn(Cc3ccccc3F)c3ccccc23)cc1OCC	nt	nt	-27%	nt	-7.4%	nt	?	2%[46.1 µM]
COc1ccc(Cn2c(SCc3ccccc3C)nc3cc(OC)c(OC)cc3c2=N)cc1	-2%	nt	nt	nt	16µM*	-76%	?	nt
O=C(Nc1ccc(S(=O)(=O)C(F)F)cc1)c1cccc(S(=O)(=O)N2CCOCC2)c1	0%	?	18µM*	24%	-0.5%	5%	-14%	-28%
Cc1ccc2[nH]cc(CCNC(=O)Nc3ccccc3)c2c1	3%	2%	?	-8%	-2.5%	-6%	7%	?
CCc1cccc(NC(=O)C2CCN(C(=O)c3cnn(-c4ccccc4)c3-n3cccc3)CC2)c1	nt	2%[46.1 µM]	?	nt	-8.8%	nt	?	-23%[46.1 µM]
O=C(c1cc2cc(Br)ccc2o1)N1CCCC1	-1%	-2%	49%[activator]	-18%	nt	-33%	nt	8%
CCCNC(=O)c1c(O)c2cccc3c2n(c1=O)CCC3	0%	-6%[46.1 µM]	-14%	15%	nt	-8%	nt	6%[46.1 µM]
CCCn1c(NC(=O)c2ccccc2)nc2ccccc21	-22%	-1%	23%	?	-12%	-113%	-22%	-4%
C/C(=N\NC(=O)COc1cccc(Cl)c1)c1ccc2c(c1)OCCO2	-2%	40%	-28%	6%	-3.3%	-7%	-11%	-1%
Cc1c(C)c2c(OCC(=O)N3CCC(C(=O)NCC(C)C)CC3)cc3c(c2oc1=O)CCC(C)(C)O3	-3%	nt	-4%	1%	nt	8%	nt	nt
Cc1ccc(CNC(=O)CCS(=O)(=O)Cc2ccc(C)cc2)cc1	16%	nt	2%	8%	nt	?	nt	nt

Some of the entries so far, in CSV form:
Structure,SARS PLpro yeast,MARV entry inh,2A StopGo,RE007 growth inh,Cruzain inh Det,NS1 inh,Cruzain noTriton,LASV entry inh
Cc1ccc2[nH]cc(CCNC(=O)Nc3ccccc3)c2c1,3%,2%,?,-8%,-2.5%,-6%,7%,?
O=C(Nc1ccc(S(=O)(=O)C(F)F)cc1)c1cccc(S(=O)(=O)N2CCOCC2)c1,0%,?,18µM*,24%,-0.5%,5%,-14%,-28%
CCC1CCCCN1S(=O)(=O)c1ccc(S(=O)(=O)N(Cc2ccccn2)CC2CCCO2)cc1 (centres undefined),-37%,?,?,2%,-4.0%,-10%,?,?
FC(F)(F)c1cccc(-c2nnc(-c3ccccc3)c(N3CCOCC3)n2)c1,-7%,-26%,0%,-14%,-3.8%,-57%,11%,-6%
COc1ccc(Cn2c(SCc3ccccc3C)nc3cc(OC)c(OC)cc3c2=N)cc1,-2%,nt,nt,nt,16µM*,-76%,?,nt
Cc1cccc(NC(=S)NNC(=O)c2ccccc2OC(F)F)c1,-1%,16%,20%,16%,2.8%,-6%,10%,24%
O=C(Nc1nnc2n1CCS2)c1cc(C(F)(F)F)cc(C(F)(F)F)c1,nt,nt,-26%,nt,-1.3%,nt,-4%,?

Next results.
SMILES	SARS PLpro yeast	MARV entry inh	2A StopGo	RE007 growth inh	Cruzain inh Det	NS1 inh	Cruzain noTriton	LASV entry inh
O=C(Nn1c(SCc2ccc([N+](=O)[O-])cc2)nc2ccccc2c1=O)c1ccc(F)cc1	-10%	-26%	48%[activator]	3%	-2.3%	?	10µM*	-15%
CCN(c1ccc(C)c(C)c1)S(=O)(=O)c1ccc2c(c1)CCN2C(=O)CCC(=O)O	5%	0%	-7%	12%	-1.9%	12%	20%	13%
COc1ccccc1N1CCN(C(=O)c2sc3nc(-c4ccc(F)cc4)cn3c2C)CC1	-16%	-3%	0%	13%	-0.5%	-96%	?	nt
O=C(NCCC1=CCCCC1)c1ccc2c(c1)N(Cc1ccccc1F)C(=O)c1ccccc1S2=O (centres undefined)	nt	?	-22%	nt	0.7%	nt	-2%	-27%[46.1 µM]
C=CCN1C(=O)CN=C1NCc1ccccc1	6%	-9%	-18%	1%	-0.6%	-7%	7%	2%
Cc1ccc(Nc2nc3ccccc3o2)cc1F	5%	?	24%	?	-4.9%	1%	-14%	-24%
Cc1cc(OCC(=O)NC(C)(C)C)ccc1Cl	?	?	19%	-12%	-2.8%	4%	1%	?
COC(C[C@@H]1O[C@@H]1C(=O)COCc1ccccc1)OC	1%	nt	3%	5%	nt	0%	nt	nt
CC1CCC(=NNC(=O)Cc2ccccc2)CC1 (centres undefined)	-4%	5%	nt	-3%	13%	8%	1%	8%
O=C(NCc1ccco1)c1cc2sccc2n1Cc1ccc(F)cc1	-22%	?	-24%	-19%	-4.5%	-37%	-12%	-4%
NS(=O)(=O)c1ccc(NC(=S)N2CCN(c3ccccc3)CC2)cc1	23%	?	0%	-16%	4.9%	3%	2%	-6%
Cn1cc(SCC(=O)Nc2nc3ccccc3s2)c2ccccc21	-26%	-1%	-21%	-24%	-4.7%	-67%	?	6%
O=C(CSc1nnc2ccccn12)c1ccc2c(c1)OCCO2	2%	?	-44%	0%	-2.5%	-3%	-13%	?
Cc1ccc(-n2nc(C(=O)N3CCCCC3C)c(=O)n(C)c2=O)cc1 (centres undefined)	nt	nt	-15%	nt	-1.9%	nt	13%	30%[46.1 µM]
CC(C)C(NS(=O)(=O)c1cccc2nsnc12)C(=O)N1CCn2c1nc1ccccc12 (centres undefined)	3%	2%	20%	1%	-9.1%	-1%	-14%	nt
Cc1ccc(NC(=O)N2CCC(c3nc4c(nnn4Cc4cccc(Cl)c4)c(=O)[nH]3)CC2)cc1	0%	?	-26%	-11%	-5.1%	18%	?	-1%
Cc1ccc(C2=CSC3=NNC4(CCCCC4)NN23)cc1	-1%	-11%	12%	-3%	nt	nt	nt	3%
O=C(CC1Sc2ccccc2NC1=O)NNC(=O)Nc1ccc(Cl)cc1 (centres undefined)	2%	-16%[14.2 µM]	-9%	-1%	nt	5%	nt	-19%
O=C(COC(=O)c1cccc(O)c1)c1ccccc1	nt	16%	-3%	-9%	nt	nt	nt	11%
COC(=O)CC1=C(C(=O)OC)C(c2cccc(OCC(N)=O)c2)C(C#N)=C(N)O1 (centres undefined)	-2%	-30%	-10%	2%	0.8%	0%	-2%	2%
O=C(NNC(=O)c1ccccc1O)c1cc2ccccc2o1	-16%	22%[46.1 µM]	20%	-12%	nt	nt	nt	?
COc1ccc(NS(=O)(=O)c2cc(NC(=O)CC(=O)c3ccc([N+](=O)[O-])cc3)ccc2C)cc1	1%	nt	0%	9%	nt	?	nt	nt
CSCc1ccc(C(=O)N2CCCC(Nc3ccc4c(c3)OCCO4)C2)o1 (centres undefined)	6%	nt	12%	1%	nt	8%	nt	nt
CN(c1ccc(OCC(=O)N2CCCCC2)cc1)S(=O)(=O)c1cccs1	2%	0%	-12%	-12%	-1.1%	0%	7%	?
COc1ccc(CNC(=O)CCc2c(C)nn(-c3ccc(N4CCCCC4)nn3)c2C)c(OC)c1	nt	nt	11%	nt	-3.7%	nt	-7%	-20%[46.1 µM]
O=C(NCC1CCCO1)c1nn2c(C(F)(F)F)cc(-c3cc(Br)cs3)nc2c1Br (centres undefined)	1%	-23%	-24%	-2%	nt	2%	nt	-27%
CCOC(=O)c1ccc(N2C(=O)CC(N(C)CCc3ccc(OC)c(OC)c3)C2=O)cc1 (centres undefined)	-29%	-12%&-12%	-19%	4µM*	-4.9%	-130%	?	-7%
O=C(c1ccc(F)cc1)C1CCN(Cc2ccc(F)cc2)CC1	-9%	-29%[46.1 µM]	-27%	0%	nt	-29%	nt	2%[46.1 µM]
Cc1ccc(SC(C)C(=O)NCCC2=CCCCC2)cc1 (centres undefined)	-29%	11%	0%	-12%	-5.9%	-4%	-4%	0%
COc1cccc(N2CCN(C(=O)c3ccc(CS(=O)Cc4ccc(Cl)cc4)o3)CC2)c1 (centres undefined)	nt	-13%[46.1 µM]	-8%	-18%	nt	22%	nt	-9%[46.1 µM]

Screening data as filed in PubChem BioAssay.
